Source: PubChem
Biofilm kill mix – mixture kills Candida albicans biofilm cells; inhibition, % at 7.6 µM; 120,000 tested, 0.02% active; C. albicans biofilm persisters + clotrimazole, fluorescence viability; primary screen in compound mixtures of four per well;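 active = inhibition above 30.3% in the primary screen of four-compound pools, then above 30% when the compound was retested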;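 note: compounds exposed to preformed 24 h biofilms for 48 h; the number belongs to the whole pool; some results filed as inactive read as strong as hits; inactives centre near 12; 0% = biofilm with clotrimazole alone and 100% = kill control; retested singly at about 60 µM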
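System: C. albicans CAF4-2 wild-type biofilms; Medium: RPMI/MOPS medium, pH 7.0; Reagent: Clotrimazole, 50 µg/mL; Times: biofilm formation 24 h, compound exposure 48 h, 37 °C; Detection: 2-h Alamar Blue fluorescence, 535/590 nm excitation/emission; Evaluation: percent inhibition of biofilm viability.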
Active calls of the source: *. Only part of the results is shown; count on the stated rates, not on these rows.

SMILES | Biofilm kill mix
O=C(COC(=O)c1cccs1)Nc1cc(S(=O)(=O)N2CCOCC2)ccc1Cl | -2
Cc1cc(/C=N/n2cnnc2)c(C)n1-c1ccc(Cl)cc1 | 7
Clc1ccc(SCc2cn3ccccc3n2)cc1 | 13
CCN(CC)S(=O)(=O)c1ccc(O)c(NS(=O)(=O)c2ccccc2F)c1 | 16
COc1ccc2cc1Oc1ccc(cc1)C[C@H]1c3cc(c(OC)cc3CCN1C)Oc1c(O)c(OC)cc3c1[C@H](C2)N(C)CC3 | 19
CC1(OC(=O)C2CCCC2)C(=O)C=C2C=C(c3ccsc3)N(Cc3ccccc3)C=C2C1=O (centres undefined) | 19
CNC(=O)c1c(NC(=O)c2cccc(N3C(=O)CCC3=O)c2)sc2c1CCCC2 | 20
Cc1ccc(-c2nc3ncccc3o2)cc1NC(=O)c1cccnc1 | 21
CCCCN(C)C(=O)c1nc2ccccn2c1CN1CCSCC1 | 10
O=C(NCCc1nc2ccccc2[nH]1)c1cccc(Br)c1 | 13
Cc1ccccc1NC(=O)C1CCN(C2=NS(=O)(=O)c3ccccc32)CC1 | 1
CC(C)C(NC(=O)c1ccc(F)cc1)C(=O)Nc1cccnc1 (centres undefined) | 11

The list goes on; it opens with the 7 that closed the last part.
SMILES | Biofilm kill mix
CC1(OC(=O)C2CCCC2)C(=O)C=C2C=C(c3ccsc3)N(Cc3ccccc3)C=C2C1=O (centres undefined) | 19
CNC(=O)c1c(NC(=O)c2cccc(N3C(=O)CCC3=O)c2)sc2c1CCCC2 | 20
Cc1ccc(-c2nc3ncccc3o2)cc1NC(=O)c1cccnc1 | 21
CCCCN(C)C(=O)c1nc2ccccn2c1CN1CCSCC1 | 10
O=C(NCCc1nc2ccccc2[nH]1)c1cccc(Br)c1 | 13
Cc1ccccc1NC(=O)C1CCN(C2=NS(=O)(=O)c3ccccc32)CC1 | 1
CC(C)C(NC(=O)c1ccc(F)cc1)C(=O)Nc1cccnc1 (centres undefined) | 11
NC1=NN=C(N2N=C(c3ccccc3)CC2(O)C(F)(F)F)n2ncnc2C1 (centres undefined) | 18
COCCCNC(=S)N/N=C/c1ccccc1O | 5
COc1ccc(/C(C)=N\NS(C)(=O)=O)c(OC)c1 | 9
COc1cc(NC(=O)Cn2ncc(Cl)c(Cl)c2=O)c(C)cc1[N+](=O)[O-] | -2
O=C(Cc1ccc([N+](=O)[O-])cc1)NCC1CCCO1 (centres undefined) | 15
O=C(OCC(=O)N1CCN(S(=O)(=O)c2ccc(Cl)cc2)CC1)c1ccc([N+](=O)[O-])o1 | 9
Cc1ccc[n+](CC(=O)N2CCCCC2)c1C | 16
Cc1cc(Sc2nc(NC(C)C)nc(NC(C)C)n2)nc(Cl)n1 | 16
O=C(CCn1nnc2ccccc21)NNC(=O)C1CCCCC1 | 12
Cc1cc(C)cc(NC(=O)Nc2ccc(N3CCCCC3)cc2)c1 | 10
COc1ccccc1NC(CC(=O)c1ccccc1)C(=O)OCC(=O)c1ccc(F)cc1 (centres undefined) | 15
O=C(Nc1ccc2cn[nH]c2c1)c1ccccc1F | 7
COC(=O)CCC(=O)OC1(C)C(=O)C=C2C=C(C3CC3)N(CCc3ccccn3)C=C2C1=O (centres undefined) | 8
O=C1CCCC2=C1C(c1cccs1)Nc1ccccc1N2 (centres undefined) | 20
O=C1/C(=C/c2ccc3c(c2)OCO3)CCC/C1=C\c1ccc2c(c1)OCO2 | 8
COc1ccc(C(=O)N/C(=C\c2cn(S(=O)(=O)N(C)C)c3ccccc23)C(=O)NC(C)C)cc1 | 17
CSCCC(NS(=O)(=O)c1ccc2[nH]c(=O)c(=O)[nH]c2c1)C(=O)O (centres undefined) | 10
CCOc1ccc(-n2c(-c3ccccc3)nnc2-c2ccccc2)cc1 | 13
O=C(Nc1cc([N+](=O)[O-])ccc1N1CCOCC1)c1ccco1 | 24
N#CCSc1nc2ccccc2c2nc3ccccc3n12 | 9
CC(=O)c1ccc(OCC(C)Oc2ccc(C#N)cc2)cc1 (centres undefined) | 18
Cc1ccc(NC(=O)Nc2nnc(-c3ccncc3)s2)cc1 | 8
Cc1nn(C(CC(=O)O)C(=O)O)c(C)c1Br (centres undefined) | 7
COc1ccccc1NC(=O)Nc1ccncc1 | 20
C=C(C)C(=O)Nc1nnc(-c2ccccc2C)s1 | 39
COc1cc(OC)c2c(-c3ccccc3)cc(=O)oc2c1C(CCN1CCCC(C)C1)c1ccc2c(c1)OCO2 (centres undefined) | 18
Cc1ccc(C2C(C#N)=C(N)Oc3cc(C)oc(=O)c32)o1 (centres undefined) | 23
O=S(=O)(NCCCN1CCOCC1)c1ccc2ccccc2c1 | 5
O=C(N/N=C/c1cccs1)[C@H]1C[C@@H]1c1ccccc1 | 10
CCCCN1C(=O)c2ccc(C(=O)Nc3ccc(C)c(S(=O)(=O)N(C)C)c3)cc2C1=O | 12
CC(C)N(CCNCc1nnc(-c2ccccc2)o1)C(C)C | 11
CC(C)(C)c1ccc(C(=O)NC(=S)Nc2ccc(N3CCOCC3)cc2)cc1 | 2
c1ccc(-c2cc(-c3nc4ccccc4[nH]3)c3ccccc3n2)cc1 | 9
CCOC(=O)C1=C(CS(=O)(=O)c2ccc(C)cc2)NC(=O)NC1c1ccc(O)c(OC)c1 (centres undefined) | 21
N#C/C(=C\c1c(F)cccc1Cl)S(=O)(=O)c1ccccn1 | 17
Cc1cc(C)nc(NN=C(c2ccccc2)c2ccccc2)n1 | 17
CC(NC(=O)CCc1nnc(-c2ccc(-c3ccccc3)cc2)o1)c1nccs1 (centres undefined) | 15
CN1CCN(C2=NCCO2)CC1 | 23
Cc1cccc(OCC(=O)Nc2ccc3c(c2)nc(CN2CCCCC2)n3C)c1 | 23
Cc1cc2cc(CN3C(=O)c4ccccc4C3=O)ccc2[nH]1 | 8
Cc1ccc(CNC(=O)C2CCCN(c3nc4ccsc4c(=O)s3)C2)cc1 (centres undefined) | 12
CCOC(=O)CCCCC(=O)c1[nH]c(=O)[nH]c1CSc1nnc2c3cc(Br)ccc3n(C)c2n1 | 9
COCCNC(=S)NC(=O)c1ccc(C(C)(C)C)cc1 | 5
O=C(NCc1ccc2c(c1)OCO2)c1cc(-c2ccncc2)nc2ccccc12 | 16
C/C=C(/C)C(=O)Nc1cccc(C2=NOC3(C2)C[C@H](C(N)=O)N(C(=O)COc2ccc(Cl)cc2)C3)c1 (some centres undefined) | 17
O=C(COC(=O)c1cc(-c2ccccc2)nc2ccccc12)NCC1CCCO1 (centres undefined) | 13
ClC(Cl)(c1nnnn1-c1ccccc1)c1nnnn1-c1ccccc1 | 11
O=C(COc1nncc2ccccc12)Nc1ccc(F)c(F)c1 | 16
CC1CN(C(=O)C2(C)CC2(Br)Br)CC(C)O1 (centres undefined) | -10
CC/C(=N\NC(=O)CCC(=O)NCc1ccccc1)c1ccc(O)cc1 | 18
CCOC(=O)c1cc(-c2ccc(F)cc2)n(CC(=O)NC(C)CC)c1C (centres undefined) | 13
C/C(=C\c1ccccc1)C(=O)NCCc1ccccc1 | 14
CCOc1ccc(-c2csc(NNC3=NCCCCC3)n2)cc1 | 1
CCOc1ccc2oc(C(=O)NC(C)(C)CC)c(C)c2c1 | 2
COc1ccccc1/C=N/NC(=O)C(=O)NCc1cccnc1 | 16
CC(=O)c1cccc(NC(=O)Nc2ccc(C(=O)N3CCOCC3)cc2)c1 | 8
Cc1cc(NC(=S)N(Cc2ccc(Cl)cc2)Cc2ccc(C(=O)O)cc2)ccc1Cl | 18
COCCN1C(=O)/C(=C/c2ccc(N3CCCC3)cc2)SC1=S | 8
Cn1c(=O)n(Cc2ccccc2)c(=O)c2c1nc1n2CCN1Cc1ccco1 | 14
COCCn1c(=S)[nH]c2ccccc21 | 15

Part of the list above in order of length of the SMILES, low to high.
SMILES | Biofilm kill mix
Cc1cc2cc(CN3C(=O)c4ccccc4C3=O)ccc2[nH]1 | 8
N#C/C(=C\c1c(F)cccc1Cl)S(=O)(=O)c1ccccn1 | 17
COc1ccccc1NC(CC(=O)c1ccccc1)C(=O)OCC(=O)c1ccc(F)cc1 (centres undefined) | 15

Carrying on:
SMILES | Biofilm kill mix
CCN1CCN(C(=O)CSc2nc(N)cc(N)n2)CC1 | 16
Cc1ccccc1NC(=O)CN1C(=O)NC(C)(CCc2ccccc2)C1=O (centres undefined) | 11
COc1cc(/C=N/Nc2nc(-c3ccc(S(=O)(=O)N(C)C)cc3)cs2)ccc1O | 15
CCOC(=O)c1c(NC(=O)CN2CCCc3ccccc32)sc(C)c1C | 12
CSc1ccccc1NC(=O)CCc1ccccc1 | 16
O=C(O)CC(CC(=O)Nc1ccc(Oc2ccccc2)cc1)c1ccccc1 (centres undefined) | 22
Cc1c2c(n3c(nc4ccccc43)c1C#N)N(CCCN(C)C)CC2 | 2
Nc1nnc(SCC(=O)c2ccc([N+](=O)[O-])cc2)s1 | 14
Cc1ccc(S(=O)(=O)CCC(=O)OCc2ccccc2)cc1 | 10
CCn1c(=O)[nH]c(=O)c2c(N)c(C(=O)c3ccccc3OC)sc21 | 9
CCOC(=O)C1(CC/C(C)=N\NC(N)=O)CC(C)(C)OC1=O (centres undefined) | 14
NC(=O)c1ccc(N2CCCCCC2)c([N+](=O)[O-])c1 | 16
O=C1Nc2ccc([N+](=O)[O-])cc2OC1CCN1CCOCC1 (centres undefined) | 11
COc1ccc(-c2cn(-c3cccc(C)c3)c(=O)[nH]2)cc1OC | 6
CCCCONc1ncnc2nonc12 | 19
COc1ccc(NC(=O)c2ccc(C(=O)Nc3ccc(OC)cc3OC)cc2)c(OC)c1 | 16
CC(=O)NC(=S)Nc1cccc2c(C)cc(C)nc12 | 16
O=C1c2cccc3cccc(c23)C(=O)N1CCN1CCN(C(=S)Nc2ccccc2)CC1 | 8
CCCCNCc1cccn1-c1ccccc1 | 11
CCCCCC(=O)N1CC2(CC(c3cccc(NC(=O)COc4ccc(Cl)cc4)c3)=NO2)C[C@@H]1C(N)=O (some centres undefined) | 15
CCOC(=O)C1(CC2CCCCO2)CCN(C(=O)Nc2ccc(C)c(C)c2)CC1 (centres undefined) | 8
Cc1ccc(C(=O)Cc2nnc(C)s2)cc1 | 7
Cc1ccc2nc(COc3ccc(N(C)S(=O)(=O)c4ccccc4)cc3)cc(=O)n2c1 | 5
CC(C)n1c(-c2ccccc2)nc(=S)c2c1CCCC2 | 16
O=S(=O)(NCC1CCCO1)c1ccc(Cl)nc1 (centres undefined) | 19
Cc1ccc(SC[C@H](Cc2ccccc2)N2CCN(CCc3ccccc3)CCC2=O)cc1 | 16
CCOC(=O)C(=CNc1cc(C)ccn1)C(=O)OCC | 17
COc1ccc(C(=O)OCC2CC(c3ccccc3)=NO2)cc1OC (centres undefined) | 12
CCOC(=O)c1c(C)[nH]c(C)c1C(=O)CSc1nc2ccccc2c(=O)n1-c1ccc(C)cc1 | 18
CCOC(=O)C1CCN(C(=O)c2cccc(S(=O)(=O)Nc3ccc(C)cc3C)c2)CC1 | 11
COc1ccc2[nH]c3c(NCCC4=CCCCC4)ncnc3c2c1 | 14
Cn1c(C(=O)OC(C(=O)NC(C)(C)C)c2cccnc2)cc2sccc21 (centres undefined) | 8
COCCCn1cc(C(=O)c2cc(Br)ccc2O)cc(C#N)c1=O | 17
Cc1nc(-c2nc(-c3c(C(=O)NN)noc3C)cs2)cs1 | 12
CCC(=O)Nc1c2c(nn1-c1cccc(Cl)c1)CSC2 | 14
Cc1ccc(CNC(=O)Cc2ccc(-n3cccc3)cc2)cc1 | 15

Reformatted tab-delimited: four of the compounds above
mol	Biofilm kill mix
COc1ccc2[nH]c3c(NCCC4=CCCCC4)ncnc3c2c1	14
COc1ccc(C(=O)OCC2CC(c3ccccc3)=NO2)cc1OC (centres undefined)	12
Cc1ccc(SC[C@H](Cc2ccccc2)N2CCN(CCc3ccccc3)CCC2=O)cc1	16
CCC(=O)Nc1c2c(nn1-c1cccc(Cl)c1)CSC2	14

Further structures follow.
SMILES | Biofilm kill mix
COC(=O)c1c(C)[nH]c(C)c1C(C)=O | 31
CCc1nc(SCC(=O)Nc2ccc(OC)cc2[N+](=O)[O-])n[nH]1 | 22
COc1ccc(-c2ccc(SCC(=O)c3ccc(F)cc3)nn2)cc1OC | 13
CCC(=O)N(Cc1cc2ccc(C)cc2n2nnnc12)C1CCCCC1 | 8
Cc1nnsc1-c1nnc(SCC(=O)c2ccc(C#N)cc2)n1C1CC1 | 16
CCCCCC(=O)Nc1ccc(S(=O)(=O)Nc2nccc(C)n2)cc1 | 21
Oc1ccc(/C=N/Nc2ncnc3c2ncn3Cc2ccccc2)cc1O | 13
CCOC(=O)/C(C#N)=C/c1cccn1-c1ccc(Cl)cc1 | 19
CCN(Cc1ccccc1)C(=O)C(C)OC(=O)c1cc(S(=O)(=O)Nc2c(C)n(C)n(-c3ccccc3)c2=O)ccc1C (centres undefined) | 12
COc1cc(/C=N/NC(=O)C2COc3ccccc3O2)cc(OC)c1OC (centres undefined) | 6
CCCCNC(=O)Cc1ccc(Br)cc1 | -2
COc1cc(S(=O)(=O)NCc2ccncc2)c(OC)cc1Cl | 12
O=C(c1cn(-c2ccccc2)nc1-c1ccc(F)cc1)N1CCCCC1 | 12
O=C(NNc1cc(Cl)ccc1Cl)c1cccnc1Cl | 18
Cc1cccc(C)c1NC(=S)N=Nc1c(O)n(C)c2ccc(S(=O)(=O)N3CCOCC3)cc12 | 11
Cc1cccc(C(=O)NCc2nnc(SCc3ccc(F)cc3)n2C)c1 | -1
C#CCOCCOCCOCCNc1nc(N2CCN(C(=O)C([C@@H](C)CC)n3cc(C(N)CO)nn3)CC2)nc(N2CCN(C(=O)[C@H](CCC(=O)O)n3cc(C(N)CC(C)C)nn3)CC2)n1 (some centres undefined) | 19
S=C1NCCOCCNC(=S)NCCOCCOCCOCCN1 | 11
O=C(/C=C/c1cccs1)N1CCCCC1 | 0
Cc1[nH][nH]c(=O)c1C(c1ccc(O)c([N+](=O)[O-])c1)c1c(C)[nH][nH]c1=O | 6
